Calb FLC = affects C. albicans growth with fluconazole; C. albicans CaCi-2 (fluconazole-resistant clinical isolate) + fluconazole, Alamar Blue growth, 48 h; growth inhibition, % (test concentration not listed); 300,000 tested, 0.57% active; AID 1979;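 active = most replicates above 75%; inconclusive = exactly half above 75%; inactive = most below 75%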;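 note: all wells also contain fluconazole at 8 µg/ml as a sub-toxic cotreatment; 0% = median of DMSO wells and 100% = median of geldanamycin control wells; wells of about 8 µL received 7.5 nL stock; the first replicate is given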
AF4-AF9 inh = MLL-AF4/AF9 protein interaction inhibition; P42568; AlphaScreen, biotin-AF4 peptide binding to FLAG-AF9; inhibition, % at 10 µM; 350,000 tested, 0.47% active;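 active = every replicate reaching a set inhibition limit, whatever the replicate mean, cut at about 25% in these data; inconclusive = mean inhibition reaches that limit but some replicates miss it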;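 note: 0% = plate neutral control median and 100% = total signal loss; the record names both 10 and 1 µM as test concentration; the first replicate is given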
Target sequence (P42568 whole entry, looked up): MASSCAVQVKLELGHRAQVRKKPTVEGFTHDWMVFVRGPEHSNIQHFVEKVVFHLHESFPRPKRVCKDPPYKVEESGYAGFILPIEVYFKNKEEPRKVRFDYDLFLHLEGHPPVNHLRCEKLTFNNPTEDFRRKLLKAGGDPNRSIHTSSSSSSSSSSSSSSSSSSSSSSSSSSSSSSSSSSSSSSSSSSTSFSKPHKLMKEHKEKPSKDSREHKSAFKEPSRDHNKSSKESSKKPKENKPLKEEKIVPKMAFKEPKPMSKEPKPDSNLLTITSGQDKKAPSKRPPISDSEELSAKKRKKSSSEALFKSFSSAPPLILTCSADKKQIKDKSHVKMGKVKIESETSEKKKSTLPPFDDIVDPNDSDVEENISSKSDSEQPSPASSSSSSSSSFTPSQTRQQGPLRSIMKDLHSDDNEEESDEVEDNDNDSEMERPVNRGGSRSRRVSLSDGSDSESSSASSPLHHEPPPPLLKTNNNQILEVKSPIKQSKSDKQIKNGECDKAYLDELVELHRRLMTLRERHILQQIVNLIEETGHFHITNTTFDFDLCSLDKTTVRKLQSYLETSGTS
Beta apoptosis = beta cell apoptosis inhibition; INS-1E cytokine-induced death, ATP luminescence, 48 h; percent of positive-control rescue, neutral wells zero; protection from apoptosis, % (no concentration beside the values); 300,000 tested, 0.8% active; AID 435005;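 active = all replicates at 75% or more, or half of them and the mean; inconclusive = half reach 75% but not the mean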;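 note: 0% = cytokine-treated negative control wells and 100% = positive control rescue; higher means more ATP so stronger rescue from cytokine killing; wells of about 40 µL received 100 nL stock; the first replicate is given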
RanGTP-Impb inh = disruptors of Ran-importin-beta complex formation – biochemical, FRET, CFP-Ran, YFP-importin-beta, homogeneous, primary screen; 300,000 tested, 1.1% active; cell-free CFP-Ran/YFP-importin-beta FRET ratio; inhibition, % (concentration not given with the values);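 active = most replicates above 15%; inconclusive = exactly half above 15%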;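 note: 0% = DMSO wells and 100% = Ran loaded with GDP instead of GTP; wells of about 40 µL received 100 nL stock; the first replicate is given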
T cruzi inh = T. cruzi replication inhibition. AID 1885. 300,000 tested, 1.4% active. inhibition, % (concentration not given with the values). T. cruzi beta-gal in NIH3T3, luminescence, 90 h;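 active = mean inhibition across valid replicates above about 55%, limit read from the data; inconclusive = mean below that limit but half or more replicates reach it; inactive = mean below it, under half of replicates reach it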;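 note: signal also drops with host cell toxicity which is not excluded here; 0% = plate median of DMSO wells and 100% = zero luminescence signal; higher percent means less beta-gal luminescence so fewer parasites; stock transfer was 50 nL into about 50 µL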
Vif TR-FRET = inhibitors of Vif binding to APOBEC3G peptide, primary screen, biochemical, TR-FRET, GST-Vif 1-94, biotin-A3G peptide, dose response retest (AID 1117319). 260,000 tested, 0.57% active. one-dose inhibition, %; IC50 in µM for titrated hits. TR-FRET GST-Vif / biotin-A3G peptide binding; higher % means a stronger effect; test concentration not given here; strong numbers were not always called active;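 active = above the screen mean plus three standard deviations and confirmed in dose response; inconclusive = results disagree or hit not tested in dose response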;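 note: Vif residues 1-94 fused to GST binding biotinylated APOBEC3G peptide 110-148; 0% = full assay without inhibitor and 100% = GST in place of GST-Vif; retest series ran down from 100 µM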
Ecoli rRNA inh = inhibits bacterial ribosomal RNA function over humanized ribosomes; E. coli WT GFP vs humanized-ribosome RFP mutants, fluorescence, 24 h; active compounds read low; DMSO median 0, no signal -100; 350,000 tested, 1.6% active; GFP signal change (wild-type ribosome), % (concentration not given with the values); AID 720706;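 active = significant combined selectivity score with lowered wild-type GFP, culture density cut under 30%, mutant RFP and density less affected; inactive = any of these conditions unmet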; note: one replicate is shown; some compounds called inactive have numbers as strong as hits
Bfl-1 A1 inh = inhibitors of the anti-apoptotic protein A1, read as caspase activation; MEF A1-2A-BIM cells, Caspase-Glo 3/7 luminescence, 3 h; percent of clofoctol response, vehicle zero; caspase activation, % (no concentration beside the values); 330,000 tested, 0.066% active; AID 2462;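 active = over half of replicate activation scores above 10%, or exactly half above 10 with the replicate mean above 10; inconclusive = replicate mean below 10 yet half the replicates above 10; inactive = over half of replicates below 10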;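 note: wells of about 30 µL received 50 nL stock; many hits fall short of the cut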
Ecoli rRNA inh OD600 = further read-out of Ecoli rRNA inh, marked with its call; OD600 change, %; measured here: OD600 growth;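 optical density of the mix in the first replicate; 0 = DMSO median and -100 = no signal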
Ecoli rRNA inh RFP = further read-out of Ecoli rRNA inh, marked with its call; RFP signal change, %; measured here: RFP humanized mutant strains;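 first replicate; 0 = DMSO median and -100 = no signal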
Active calls of the source: *; ? = inconclusive; . = no result given.

SMILES | Calb FLC | AF4-AF9 inh | Beta apoptosis | RanGTP-Impb inh | T cruzi inh | Vif TR-FRET | Ecoli rRNA inh | Ecoli rRNA inh OD600 | Ecoli rRNA inh RFP | Bfl-1 A1 inh
O=C(c1cc(-c2ccncc2)nc2ccc(Cl)cc12)N1CCN(Cc2ccc3c(c2)OCO3)CC1 | -23.4 | 20.5 | -9.5 | -2.5 | 71.7* | 14.0% | -3.4 | -5.5 | -1.5 | -0.3
Cc1ccc([N+](=O)[O-])c(OCC(=O)OCC(=O)c2ccccc2)c1 | -0.5 | 3.0 | -2.0 | 3.3 | -20.9 | -4.7% | 3.0 | 10.2 | -3.5 | 0.7
NCC1CCC(C(=O)Oc2ccc(CCC(=O)O)cc2)CC1 (stereo not given) | . | -1.2 | 5.7 | -0.2 | -6.9 | . | . | . | . | 3.1
COc1ccc(CC(=O)NCC(=O)N=Nc2c(O)[nH]c3ccccc23)cc1 | 10.1 | -14.1 | 4.1 | ? | -6.7 | 4.5% | 16.6 | 10.7 | 1.3 | 0.6
Nc1c(C(=O)NCc2ccc3c(c2)OCO3)nnn1CC(=O)Nc1ccc(Br)cc1 | 14.7 | -0.6 | 10.3 | 1.6 | 15.2 | . | 17.4 | 10.8 | 2.5 | -0.8
CCC(=O)c1ccc(OCC(=O)OCC(=O)NCC2CCCCC2)cc1 | 6.2 | -2.0 | . | 2.0 | -7.1 | -8.9% | -1.1 | -6.1 | -0.1 | 0.5
Cc1ccc2c(CN3CCCCC3CCO)cc(=O)oc2c1 (stereo not given) | -10.0 | -0.2 | -2.2 | 0.8 | -4.8 | 15.5% | 8.1 | 16.1 | 0.2 | 0.3
O=C(CC1C(=O)OCN1C(=O)OCc1ccccc1)OCC(=O)c1ccccc1 (stereo not given) | 12.2 | . | -3.6 | -0.8 | 2.5 | 1.6% | . | . | . | 0.4
Cc1ccc(NC(=O)Cn2cnc3sc(C(=O)NCc4ccco4)c(C)c3c2=O)cc1Cl | 18.3 | . | -2.2 | -1.0 | 14.0 | 11.8% | . | . | . | 0.2
COCc1c(C(=O)N2CCN(c3ccc(C(F)(F)F)cn3)CC2)oc2ccccc12 | -13.4 | . | -0.7 | 0.0 | -13.2 | -3.1% | . | . | . | -0.1
COc1ccccc1CNC(=O)CC12CC3CC(CC(Br)(C3)C1)C2 | 5.8 | 1.6 | -3.8 | 5.3 | 6.0 | . | 5.7 | 7.1 | -1.5 | 0.6
COCCNC(=O)C(c1ccc(F)cc1)N(C(=O)CCC(=O)Nc1ccccn1)C1CCCCC1 (stereo not given) | -2.4 | -3.2 | 1.4 | 2.2 | 6.8 | . | 0.7 | 1.0 | 1.0 | 0.5
COCCN1C(=O)N(c2ccccc2)C(=O)C1CC(=O)Nc1cc(OC)cc(OC)c1 (stereo not given) | -10.3 | -1.4 | -3.5 | 0.1 | -4.8 | 2.7% | 8.1 | 11.5 | 2.2 | 1.3
Cc1ccc(C)c(NC(=S)N=Nc2c(O)n(C)c3ccc(S(=O)(=O)N4CCOCC4)cc23)c1 | -6.0 | -2.3 | 47.8 | -2.6 | 0.5 | . | 14.7 | 8.4 | -0.5 | 0.5
CCCCNC(=O)Nc1ccc(Br)cn1 | -3.1 | . | -0.9 | 3.6 | 7.3 | 3.2% | . | . | . | -0.1
C=CCn1c(CCc2ccc(OC(C)C)cc2)n[nH]c1=S | -14.6 | -6.6 | -1.2 | 3.5 | -24.6 | -5.1% | -0.3 | -0.5 | 1.1 | -5.2
CC(=O)c1ccc(S(=O)(=O)N2CCN(C(=O)c3ccc(N)c([N+](=O)[O-])c3)CC2)cc1 | . | 2.0 | 1.0 | . | . | . | 1.6 | -7.3 | 2.6 | 1.2
CC1=C(C(=O)OCCOC(C)C)C(c2cc3c(cc2Br)OCO3)CC(=O)N1 (stereo not given) | 2.2 | . | -2.0 | -0.4 | 8.3 | -8.0% | . | . | . | -0.7
COC(=O)c1[nH]c2ccc(Cl)cc2c1NC(=O)C1CC1 | -2.3 | . | -2.8 | 4.3 | -3.5 | -1.1% | . | . | . | 0.6
COC(=O)c1ccc(NC(=O)Cn2nc(C)c3ccccc3c2=O)cc1 | -4.3 | -0.5 | . | -3.7 | -3.0 | . | -1.0 | 7.0 | 1.9 | -0.8
O=C(Nc1ccc(S(=O)(=O)Nc2nccs2)cc1)c1ccc(S(=O)(=O)N2CCOCC2)cc1 | -19.5 | . | -4.3 | -0.1 | 1.7 | -4.3% | . | . | . | 0.2
CSc1nncc(/C(C)=N/O)n1 | -6.2 | 1.3 | . | 7.8 | -3.5 | . | 5.8 | 10.0 | 1.4 | 1.4
CCOC(=O)N1CCN(C(=O)CS(=O)(=O)c2cn(Cc3ccc(F)cc3)c3ccccc23)CC1 | -0.2 | -8.9 | -1.6 | -0.6 | 0.9 | . | 3.7 | -5.1 | -4.7 | -0.4
Cc1cccc(NC(=O)COC(=O)COc2ccc3c(c2)CCC3)c1 | . | 1.4 | 0.2 | . | . | -2.8% | 0.5 | 5.7 | -1.5 | 0.5
COc1cccc(N2CC(O)=C(c3ccccc3)C2=N)c1 | 22.4 | . | -2.7 | 2.4 | 4.3 | 8.4% | . | . | . | 1.4
C=C(C)C(=O)Nc1cccc(C2=NOC3(C2)C[C@@H](C(N)=O)N(C(=O)c2cc([N+](=O)[O-])cc([N+](=O)[O-])c2)C3)c1 (stereo not given in full) | 12.3 | . | -6.2 | 2.6 | -10.4 | 4.69µM* | . | . | . | -0.4
N=c1ccn(CC(=O)NC(N)=O)c2ccccc12 | 7.0 | -4.0 | -3.3 | ? | -5.0 | -3.7% | 5.3 | 4.2 | -1.5 | 0.2
Cc1cccc(Cn2cccc2/C=C2/C(=N)N3C=CSC3=NC2=O)c1 | -0.8 | . | 2.1 | ? | -3.9 | . | . | . | . | 0.7
Cc1cccc(CCNC(=O)CCNC(=O)Cn2ccc3ccccc3c2=O)c1 | -8.2 | . | 1.0 | ? | -10.5 | 24.1% | . | . | . | 1.0
Cn1c(-c2ccc(F)cc2)cc2onc(-c3ccccc3Cl)c2c1=O | . | -0.6 | 7.1 | . | . | . | 7.6 | 7.0 | -2.5 | -1.3
CCNC(=S)N1CCC(NC(=O)c2ccco2)CC1 | 3.7 | 0.2 | 5.3 | ? | -14.8 | 7.2% | 14.2 | 5.2 | 2.3 | -0.6
O=C1Cc2cc(NS(=O)(=O)c3cc(F)ccc3F)cc3c2N1CCC3 | -4.7 | . | 2.5 | -1.0 | -10.3 | 11.6% | . | . | . | 0.4
Cc1ccccc1Oc1cccc(C(=O)/C(C#N)=C/N(C)C)c1 | 0.2 | . | -0.4 | 1.8 | 4.9 | 1.5% | . | . | . | -0.1
CN(CC(=O)NCCc1ccc(F)cc1)Cc1ccc(Br)cc1 | -0.3 | -1.5 | -2.9 | 1.2 | 22.2 | . | -4.5 | -37.0 | -10.8 | -2.0
CC(C)(C)N1C(=O)[C@H]2[C@@H](c3ccc(Br)cc3)N3C(=O)N(c4ccccc4)C(=O)[C@@]3(Cc3ccccc3)[C@H]2C1=O | 5.3 | 4.4 | -1.2 | 0.5 | -5.3 | . | 3.6 | 2.8 | -2.4 | 0.9
O=c1oc2ccccc2c2c1SC(C(F)(F)F)C2 (stereo not given) | 1.8 | . | -11.7 | -2.5 | -4.6 | -9.7% | . | . | . | 0.1
CC1(C)NC(=O)N(CC(=O)OCC(=O)c2ccc(Cl)s2)C1=O | . | -3.6 | 2.3 | . | . | -15.0% | 4.4 | 4.6 | -0.7 | 0.9
O=C(COC(=O)c1ccc(CO)cc1)Nc1ccc2ccccc2c1 | . | -4.4 | -8.0 | . | . | -6.9% | 4.4 | 3.7 | -0.1 | 1.8
COc1ccc(S(=O)(=O)N(Cc2cc3cc(C)ccc3[nH]c2=O)CC2CCCO2)cc1 (stereo not given) | -2.9 | . | 0.7 | 5.4 | 1.8 | -12.4% | . | . | . | -0.6
CCOc1ccc(NC(=O)CSc2nc(N3CCOCC3)nc(N3CCOCC3)n2)cc1 | -16.5 | -0.6 | -6.7 | 0.7 | 20.0 | 1.0% | 15.8 | 19.1 | 1.6 | 0.7

Whole records, looked up by structure:
`Cc1cccc(CCNC(=O)CCNC(=O)Cn2ccc3ccccc3c2=O)c1` is listed with Calb FLC = -8.2; AF4-AF9 inh = .; Beta apoptosis = 1.0; RanGTP-Impb inh = ?; T cruzi inh = -10.5; Vif TR-FRET = 24.1%; Ecoli rRNA inh = .; Ecoli rRNA inh OD600 = .; Ecoli rRNA inh RFP = .; Bfl-1 A1 inh = 1.0
`O=C(COC(=O)c1ccc(CO)cc1)Nc1ccc2ccccc2c1` is listed with Calb FLC = .; AF4-AF9 inh = -4.4; Beta apoptosis = -8.0; RanGTP-Impb inh = .; T cruzi inh = .; Vif TR-FRET = -6.9%; Ecoli rRNA inh = 4.4; Ecoli rRNA inh OD600 = 3.7; Ecoli rRNA inh RFP = -0.1; Bfl-1 A1 inh = 1.8

Carrying on:
SMILES | Calb FLC | AF4-AF9 inh | Beta apoptosis | RanGTP-Impb inh | T cruzi inh | Vif TR-FRET | Ecoli rRNA inh | Ecoli rRNA inh OD600 | Ecoli rRNA inh RFP | Bfl-1 A1 inh
O=S(=O)(c1ccccc1)N(Cc1nc(-c2ccccc2)no1)C1CCCCC1 | 2.3 | . | 12.3 | -5.0 | 27.8 | -4.9% | . | . | . | -1.6
COc1ccc(NS(=O)(=O)c2cccc(C(=O)N3CCCCCCC3)c2)cc1 | . | 4.7 | 3.9 | . | . | 2.6% | -1.5 | -13.8 | 0.5 | -0.5
Cc1ccc(Cn2nnc3c(=O)[nH]c(C(=O)NCc4ccco4)nc32)cc1 | -6.8 | . | 10.2 | 4.1 | 2.5 | 3.3% | . | . | . | -0.7
COc1ccc(OC)c(Nc2nc(NCc3ccco3)c3ccccc3n2)c1 | 8.7 | 3.2 | . | 0.2 | 49.2 | . | 17.7 | -7.6 | 2.3 | -0.2
CN(C)c1ccc(CNc2ccc3c(c2)ncn3C)cc1 | -13.9 | . | 8.3 | 3.4 | 32.4 | 9.5% | . | . | . | 0.5
CSc1ncc(CNc2cc([N+](=O)[O-])ccc2C)c(N)n1 | 25.7 | 4.8 | -4.7 | -3.4 | -10.6 | . | -1.7 | -20.7 | 8.2 | -0.3
COc1ccccc1/C=N/n1cnnc1 | 5.7 | . | -9.3 | 2.5 | -1.3 | -3.0% | . | . | . | -0.9

Three entries already listed, sorted by their value in AF4-AF9 inh, descending:
molecule	AF4-AF9 inh
CSc1ncc(CNc2cc([N+](=O)[O-])ccc2C)c(N)n1	4.8
COc1ccc(NS(=O)(=O)c2cccc(C(=O)N3CCCCCCC3)c2)cc1	4.7
COc1ccc(OC)c(Nc2nc(NCc3ccco3)c3ccccc3n2)c1	3.2

Screening data from PubChem BioAssay.

Some of the compounds tested; the hit share may differ from the screen's.
